# From PubChem BioAssay
# KCNQ2 block – KCNQ2 potassium channel inhibitors, primary screen, cell-based, CHO-K1, FluxOR thallium flux, B-score (AID 2156). O88943. 20 min; hits give low values; only compounds with negative scores are shown here; some inactives read as strong as hits. B-score at 10 µM. hit rate 1.1% among 310,000;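 active means fluorescence ratio B-score at most minus 3 library SDs, with starting brightness B-score within 2 library SDs, cut at about -5.5 in these data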
# Target sequence (O88943 whole entry, looked up): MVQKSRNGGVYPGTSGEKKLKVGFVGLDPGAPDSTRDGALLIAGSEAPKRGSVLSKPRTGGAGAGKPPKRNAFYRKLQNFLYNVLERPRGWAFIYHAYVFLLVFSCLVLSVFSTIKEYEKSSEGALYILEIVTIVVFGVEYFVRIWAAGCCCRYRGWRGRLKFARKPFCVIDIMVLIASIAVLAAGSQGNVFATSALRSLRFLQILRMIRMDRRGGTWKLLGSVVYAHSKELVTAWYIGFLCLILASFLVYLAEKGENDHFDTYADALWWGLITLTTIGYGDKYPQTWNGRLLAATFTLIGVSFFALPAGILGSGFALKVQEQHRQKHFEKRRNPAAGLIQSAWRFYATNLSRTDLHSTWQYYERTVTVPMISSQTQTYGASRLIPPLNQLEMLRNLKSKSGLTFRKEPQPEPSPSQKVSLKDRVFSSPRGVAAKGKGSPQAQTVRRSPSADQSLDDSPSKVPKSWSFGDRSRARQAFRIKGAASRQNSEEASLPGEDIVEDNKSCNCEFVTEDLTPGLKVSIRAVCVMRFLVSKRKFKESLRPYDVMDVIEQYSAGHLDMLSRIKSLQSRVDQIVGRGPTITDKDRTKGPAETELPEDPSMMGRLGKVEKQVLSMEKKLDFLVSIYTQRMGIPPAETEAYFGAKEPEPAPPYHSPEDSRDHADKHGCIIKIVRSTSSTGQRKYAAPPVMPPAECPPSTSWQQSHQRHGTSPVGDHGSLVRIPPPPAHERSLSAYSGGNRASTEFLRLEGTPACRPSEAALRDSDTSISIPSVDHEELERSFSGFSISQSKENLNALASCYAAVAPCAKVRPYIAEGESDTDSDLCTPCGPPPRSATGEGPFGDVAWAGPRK
# KCNQ2 block baseline – further read-out of KCNQ2 block, marked with its call; B-score; measured here: initial fluorescence intensity artifact check;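 brightness before thallium and not channel activity; 0 = typical well and far values either way flag optical interference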
# * = called active by the depositor; i = inactive.
SMILES,KCNQ2 block,KCNQ2 block baseline
Cn1nc(C(F)(F)F)c(/C=N/OC(=O)c2ccccc2)c1SCc1ccc(Cl)cc1,i,1.4
CC(=O)c1c(C)[nH]c(C(=O)Nc2cccc(C#N)c2)c1C,i,-3.3
O=C(NCCN1C(=O)S/C(=C/c2ccccc2)C1=O)C1CCCN1C(=O)c1cccs1 (stereo not drawn),i,-1.7
O=C(CSc1ccccn1)Nc1cccc([N+](=O)[O-])c1,i,-1.1
COc1cc(NC(N)=S)c(OC)cc1Cl,i,0.16
CCn1c(C)nc2cc(OC)ccc21,i,-0.02
O=C(NC(=S)NCc1ccncc1)c1ccccc1,i,2.4
O=C(O)c1cccc(N2C(=O)C3CC=C(Cl)CC3C2=O)c1 (stereo not drawn),i,3.2
Cc1csc(NC(=O)CSc2nnc(-c3ccncc3)o2)n1,i,-0.68
Cc1csc2nc(NC(=O)c3ccccc3)sc(=O)c12,i,-0.07
COc1cc2ccccc2cc1C(=O)Nc1ccc(NC(=O)c2cccs2)cc1,i,0.02
Cc1ccc(NC(=O)CCC(C(=O)O)N2C(=O)c3ccccc3C2=O)cc1 (stereo not drawn),i,0.66
Cc1ccccc1N1C(=O)CC2(CCCC2)CC1=O,i,-1.1
Cc1cc(=O)oc2cc(OCC(=O)OCC(=O)Nc3ccccc3C(C)C)ccc12,i,0.44
COc1cccc(Oc2cncnc2-c2ccc(OC)cc2O)c1,i,-0.39
O=C(NC1CCCCC1)C(c1ccc(F)cc1)N(Cc1ccco1)C(=O)Cn1nnc2ccccc21 (stereo not drawn),i,0.08
Cc1c(NC(=O)C(C)OC(=O)COc2ccccc2)c(=O)n(-c2ccccc2)n1C (stereo not drawn),i,2
COC(=O)c1ccccc1OCC(=O)NC1CCCCC1,i,-1.7
COC(=O)c1ccc(COc2c(F)c(F)cc(F)c2F)o1,i,0.25
CCC1S/C(=N/C(=O)NC2CCCCC2)NC1=O (stereo not drawn),i,-1.2
CSCCC(NC(=O)C1CCC(C)CC1)C(=O)N1CCN(c2ccccn2)CC1 (stereo not drawn),i,0.18
CCOC(=O)Cn1c(=O)c(-c2ccccc2NC)nc2ccccc21,i,-0.4
Cc1ccc(S(=O)(=O)c2cc3c(=O)n4ccccc4nc3n(CC3CCCO3)c2=N)cc1C (stereo not drawn),i,-0.7
CCCNC(=O)COc1ccc2c(=O)c(Oc3ccccc3F)coc2c1,i,-0.35
CCC(CC)C(=O)Nc1cccc(C(=O)N2CCCCCC2)c1,i,-0.36

# Further entries follow.
SMILES,KCNQ2 block,KCNQ2 block baseline
COc1ccc(CN2CCCC(C(=O)c3cccc(OC(C)C)c3)C2)cc1Cn1cccn1 (stereo not drawn),i,-1.3
COC(=O)C(C(=O)Nc1cccc(C)n1)C1CCCCCC1 (stereo not drawn),i,-0.2
CSCC[C@H](NC(=O)c1cccc([N+](=O)[O-])c1C)c1nc2ccccc2[nH]1,i,1.2
COc1cc(C(=O)Nc2cccc(-c3cn4cccnc4n3)c2)cc(OC)c1OC,i,-0.47
Cc1ccc(N2C(=O)c3ccccc3NC2(C(=O)O)c2ccccc2)cc1Cl (stereo not drawn),i,-0.11
Cc1csc(N(C(=O)c2cccc(S(=O)(=O)N(C)C)c2)c2ccccc2)n1,i,0.56
COc1ccc(C(=O)NC2CCCc3c2cnn3-c2cc(F)cc(F)c2)c(OC)n1 (stereo not drawn),i,2.4
O=C(c1cccc(Cl)c1)N1CCC(C(=O)N2CCN(Cc3ccccc3)CC2)CC1,i,-0.07
CCCCCCC(=O)Nc1nc(C)c(-c2csc(Nc3cccc(OC)c3)n2)s1,i,0.99
COc1cnc(-c2ccccc2)nc1Oc1ccc(C(C)(C)C)cc1,i,0.22
COc1cccc(OC)c1C(=O)NCCc1ccccc1,i,-1.4
N#CCC(=O)N/N=C/c1ccc(Cl)cc1,i,0.08
Cn1c(=O)cc(N)n(-c2ccccc2)c1=O,i,0.59
C/C(=N\NC(=S)NC1CCCCC1)c1ccc(C#N)cc1,i,1.5
CN1/C(=C\C=C2/SC(=S)N(CC(=O)O)C2=O)C(C)(C)c2ccccc21,i,100
COc1cc(C2c3[nH]c4ccccc4c3CCN2Cc2cn(C)nc2C)ccc1F (stereo not drawn),i,-1.7
N#C/C(=C/c1ccccc1[N+](=O)[O-])c1nnc2n1CCCCC2,i,0.32
Cc1ccc(OCC(=O)N2N=C(C(F)(F)F)CC2(O)C(C)(C)C)cc1C (stereo not drawn),i,0.05
Cc1cccc(C)c1-n1cccc1/C=C1\SC(=S)N(c2cccc(C(=O)O)c2)C1=O,i,0.03
CC1(C)CC(=O)C(C(c2ccccc2F)C2C(=O)CC(C)(C)CC2=O)C(=O)C1,i,-0.14
Cc1ccc2c(c1)CCCN2C(=O)Nc1ccc2c(c1)OCO2,i,1.5
COCCCn1c(SCc2cccc(OC)c2)nc2cc(OC)c(OC)cc2c1=N,i,0.09
CN(C)S(=O)(=O)c1cccc(NC(=O)CSc2nncn2-c2ccccc2)c1,i,-0.91
CCN(CC)S(=O)(=O)c1cccc(NC(=O)COC(=O)/C=C/c2cccs2)c1,i,1
CN(C(=O)COC(=O)c1ccccc1C(=O)N(C)c1ccccc1)c1ccccc1,i,0.36

# The listing continues:
SMILES,KCNQ2 block,KCNQ2 block baseline
O=C(NCCC1CCCCN1S(=O)(=O)c1cccs1)C(=O)Nc1ccc(F)cc1 (stereo not drawn),i,-0.3
CCS(=O)(=O)c1nc(S(=O)(=O)c2ccc(Cl)cc2)c(N2CCC3(CC2)OCCO3)s1,i,1.2
CC(=O)C1C(c2ccncc2)NC(=O)NC1(O)C(F)(F)F (stereo not drawn),i,-0.49
CCOC(=O)COc1ccc(Oc2nc(C)cc(OC)n2)nn1,i,0.74
COc1ccc(/C=C(/NC(=O)c2ccccc2OC)C(=O)Nc2ccc(C(=O)O)cc2)cc1,i,-0.51
COc1cccc(CN(C)C(=O)c2cc(-c3ccc(F)cc3)nc3ccccc23)c1,i,-0.17
Cc1occc1-c1nnc(SCC(=O)Nc2nccs2)n1CCc1ccccc1,i,-0.59
CC(=O)N1CCN(C(=O)c2cc(-c3cccc4ccccc34)nc3ccccc23)CC1,i,-1.5
COc1ccc(C(=O)N/C(=C/c2ccc(Cl)cc2)C(=O)Nc2ccc(C(=O)O)cc2)cc1,i,1.6
CCn1c(NC(=O)c2nn(C)cc2Br)nc2ccccc21,i,0.88
COc1ccc(N2CCC(CNC(=S)Nc3cccc(OC)c3)C2)cc1 (stereo not drawn),i,1
Cc1c(Cl)cccc1NC(=O)Nc1cc(C(C)(C)C)on1,i,0.47
CCOC(=O)/C=C1\SCC(=O)N1CC(=O)NC(c1ccccc1)c1ccccc1,i,0.68
Cc1ccc2c(c1)C(O)(CC(=O)c1cccnc1)C(=O)N2 (stereo not drawn),i,0.76
CCOc1ccc(NC(=O)c2c(NC(=O)CN3CCCC3)sc3c2CCC3)cc1,i,2
COc1ccc(-c2cc(C(=O)OCC(=O)NC(C)(C)C)c3ccccc3n2)cc1,i,2.1
Cc1nnc(SCc2cc(=O)[nH]c(=S)[nH]2)s1,i,0.08
CCn1c(SCC(=O)NC2CCCc3ccccc32)nnc1-c1cccs1 (stereo not drawn),i,-0.05
CCOC(=O)c1nnc(-c2ccc(C)cc2)nc1N1CCSCC1,i,-1.2
COc1ccc(C(=O)c2coc(-c3ccccc3C(=O)O)c2C(=O)O)cc1,i,-0.01
C/C(=N\NC(=O)c1cccc2ccccc12)c1ccccn1,i,-1.1
O=C(Sc1nnc(-c2ccccc2)o1)N1c2ccccc2Sc2ccccc21,-6.8*,2.4*
O=C(O)c1ccc(NC(=O)c2ccco2)c(NC(=O)c2ccco2)c1,i,0.22
O=c1c2ccccc2nc(SCc2ccccc2)n1CC1CCCO1 (stereo not drawn),i,1.4
CCOc1ccccc1-n1nnnc1SCc1nc2ccccc2s1,i,1.1

# Further compounds:
SMILES,KCNQ2 block,KCNQ2 block baseline
Cn1c(=O)c2c(nc(NCCNC(=O)c3ccco3)n2Cc2ccccc2F)n(C)c1=O,i,-0.11
COc1ccc(C/C(C)=N/NC(=O)C2COc3ccccc3O2)cc1 (stereo not drawn),i,-2.9
COc1ccc(-c2nn(-c3ccccc3)cc2/C=C/C(=O)OCC(=O)Nc2cccc(C#N)c2)cc1,i,2
CC(C)[C@H](NC(=O)c1ccccc1)C(=O)OCC(=O)N1CCCCCC1,i,1.9
Cc1nn(-c2ccccc2)c(N)c1N=Nc1ccccc1,i,1.8
COC(=O)c1cn(NC(=O)c2cccc(F)c2)c(=O)c2ccccc12,i,0.96
CSc1cccc(NC(=S)Nc2cc(C)ccc2C)c1,i,-0.38
CCCCC(O)(c1ccccc1)C(CN1CCOCC1)c1ccccc1 (stereo not drawn),i,0.03
O=C(O)/C=C/C(=O)NC1CCS(=O)(=O)C1 (stereo not drawn),i,-0.44
CCOc1ccc(CNC23CN4CN(CN(C4)C2)C3)cc1,i,2
Cc1cc(C)c2sc(NC(=O)C3CC3)nc2c1,i,0.49
CCOCCCNc1nc(C(F)(F)F)nc2c1nnn2Cc1ccccc1Cl,i,0.18
COc1cc(S(=O)(=O)N(Cc2cccs2)C2CC2)ccc1-n1cnnn1,i,-1.8
COc1ccc(C2CC(=O)C=C(NCCC(C)C)C2)cc1 (stereo not drawn),i,0.12
CCOC(=O)/C(=N\Nc1cc(C(F)(F)F)ccc1Cl)N(CC)CC,-8.9*,0.08*
Cc1cc(OCCCCCn2ccnc2)cc(C)c1Cl,i,6.6
CCOc1ccccc1Nc1nnc(SCc2nnc(-c3cc(OC)c(OC)c(OC)c3)o2)s1,i,4.2
Cc1cccc(NC(=O)CCNS(=O)(=O)c2cccc3nonc23)c1C,i,-0.57
CC(=O)c1sc(NC(=O)COc2ccc(Cl)cc2Cl)nc1C,i,-0.38
OC(CN1CCCCC1)CN(c1ccccc1)c1ccccc1 (stereo not drawn),i,-0.2
COc1ccc(Br)cc1C(=O)Nc1ccc(NC(=O)c2ccco2)cc1,i,-0.83
CCCCOc1ccc(Cc2cnc(N)nc2N)cc1,i,-1.3
O=C(CSc1nc2[nH]ncc2c(=O)[nH]1)Nc1ccccc1,i,-2.3
CCOC(=O)/C(N=Nc1sc(C(=O)OCC)c(C)c1C(=O)OCC)=C(\C)O,i,1.4
CCCC(=O)n1nc(NCc2ccc(OC)cc2)nc1NCc1ccc(OC)cc1,i,-0.8

# (more compounds)
SMILES,KCNQ2 block,KCNQ2 block baseline
CSCCC(NC(=O)c1ccccc1Cl)C(=O)N(C)Cc1cccs1 (stereo not drawn),i,-1.8
CCOC(=O)c1c(C=O)c(C)n(Cc2ccccc2Cl)c1C,-5.8*,-1.2*
Cc1nn(Cc2ccccc2)c(Cl)c1C(=O)NCc1ccco1,i,-1.2
CNC(=S)Nc1ccc(OCc2ccccc2)cc1,i,1.6
Cc1cc(C)c(NC(=S)N(CCc2ccncc2)C(C)C)c(C)c1,i,0.3
COc1ccc(NC(=S)N2CCCN(Cc3cccc(Cl)c3)C2)cc1,i,-0.52
CSc1nc(-c2ccco2)nn1S(=O)(=O)c1ccccc1,i,1.9
NS(=O)(=O)c1ccc(CCNc2nc3c(-c4cccc(F)c4)nnn3c3ccccc23)cc1,i,1.8
CCONC(=O)Nc1ccccc1[N+](=O)[O-],i,0.6
Cc1[nH]n(-c2ccc([N+](=O)[O-])cc2)c(=O)c1C=NCCc1c[nH]c2ccccc12,i,0.32
O=C(CN1CCCCC1)c1c[nH]c2ccccc12,i,0.98
CCC(C)c1ccc(S(=O)(=O)N2CCN(C(=O)COc3ccc4c(C)cc(=O)oc4c3)CC2)cc1 (stereo not drawn),i,1.6
CNC(=O)Nc1cc(C(C)(C)C)no1,i,0.93
CC/C(O)=C1\C(=O)CC(c2ccccc2)CC1=NC(C)C (stereo not drawn),i,0.05
O=C1NC(c2ccc(Cl)cc2Cl)Oc2ccccc21 (stereo not drawn),i,-0.84
CCN(C(=O)c1ccc(Br)cc1)c1ccccc1,i,0.5
CC(C)OC(=O)Cn1nnc(-c2ccccc2)n1,i,-0.47
c1csc(-c2csc(-c3cccs3)n2)c1,i,0.77
COc1ccc(C(=O)/C=C/c2ccc(OC)c(O)c2)c(F)c1,i,-0.68
CC1CN(C(=O)c2cccc(S(=O)(=O)Nc3cc(Cl)ccc3Cl)c2)CC(C)O1 (stereo not drawn),i,1.3
Cc1ccc(C)c(N(CC(=O)NC(C)(C)C)C(=O)CNC(=O)c2cccs2)c1,i,0.21

# An excerpt of these results, with the structure last:
KCNQ2 block,KCNQ2 block baseline,SMILES
i,1.9,CSc1nc(-c2ccco2)nn1S(=O)(=O)c1ccccc1
i,1.8,NS(=O)(=O)c1ccc(CCNc2nc3c(-c4cccc(F)c4)nnn3c3ccccc23)cc1
i,0.6,CCONC(=O)Nc1ccccc1[N+](=O)[O-]
i,0.32,Cc1[nH]n(-c2ccc([N+](=O)[O-])cc2)c(=O)c1C=NCCc1c[nH]c2ccccc12
i,0.98,O=C(CN1CCCCC1)c1c[nH]c2ccccc12
i,1.6,CCC(C)c1ccc(S(=O)(=O)N2CCN(C(=O)COc3ccc4c(C)cc(=O)oc4c3)CC2)cc1 (stereo not drawn)
i,0.93,CNC(=O)Nc1cc(C(C)(C)C)no1
i,0.05,CC/C(O)=C1\C(=O)CC(c2ccccc2)CC1=NC(C)C (stereo not drawn)
i,-0.84,O=C1NC(c2ccc(Cl)cc2Cl)Oc2ccccc21 (stereo not drawn)
i,0.5,CCN(C(=O)c1ccc(Br)cc1)c1ccccc1
i,-0.47,CC(C)OC(=O)Cn1nnc(-c2ccccc2)n1
i,0.77,c1csc(-c2csc(-c3cccs3)n2)c1
i,-0.68,COc1ccc(C(=O)/C=C/c2ccc(OC)c(O)c2)c(F)c1
i,1.3,CC1CN(C(=O)c2cccc(S(=O)(=O)Nc3cc(Cl)ccc3Cl)c2)CC(C)O1 (stereo not drawn)
i,0.21,Cc1ccc(C)c(N(CC(=O)NC(C)(C)C)C(=O)CNC(=O)c2cccs2)c1

# A portion of the library; rates above refer to the full screens.
